NPYLR7 agonist: agonists of mosquito NPYLR7 receptor, primary screen, cell-based, Aedes aegypti, calcium fluorescence, mosquito biting behavior | HEK293T NPYLR7/Galpha15, GCaMP6s calcium fluorescence | activation, % at 10 µM | Aedes aegypti neuropeptide Y-like receptor 7 (NPYLR7) | AID 1259423, 2018 | actives 0.15% (n = 270,000); in the data active = activation above about 40%;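 note: 0% = vehicle and 100% = reference agonist at the receptor; some compounds past the cut are filed as inactive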
NPYLR7 agonist max-min: also measured in NPYLR7 agonist; calls as there; activation, %; measured here: Max-Min RFU normalised activation; some inactives read as strong as hits;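 span of the calcium signal over five minutes; 0% = vehicle and 100% = native peptide agonist; compound fluorescence can raise it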
* hit, by the source's call; & = joins results of further samples. A portion of the library. The share of hits here may be higher or lower than overall.

Under each structure – NPYLR7 agonist, NPYLR7 agonist max-min
Cc1cc(Cl)ccc1Nc1nc(NCCN(C)C)nc2nccnc12
→ 4, 10
c1cnc(-c2noc(CN3CCN(C4C5CC6CC(C5)CC4C6)CC3)n2)cn1 (stereo not drawn)
→ 4, 2
Cc1[nH]c(=O)n(C)c(=O)c1CCc1nnc(SCC(=O)Nc2ccccc2F)o1
→ -7, -12
CCCC/C=C/c1cccc(Nc2ccc(OC)cc2)n1
→ -7, -10
O=C(O)CN1C(=O)/C(=C\c2ccc3c(c2)OCO3)SC1=S
→ 15, -5
COc1cccc(C2=Nc3nnnn3C(c3ccc(OC)cc3OC)C2)c1 (stereo not drawn)
→ 15, 9
N#CC1C(Br)C(O)c2ccccc2N1C(=O)c1ccccc1 (stereo not drawn)
→ -4, -4
CCCCCCCC(=O)N(CC(=O)N1CCc2sccc2C1c1ccc(Cl)cc1Cl)Cc1ccco1 (stereo not drawn)
→ 2, 4
CCc1sc(C(=O)NCC(=O)N2CCCC2c2ccc(C)cc2)cc1C (stereo not drawn)
→ 0, 0
COc1ccccc1Nc1ccc(S(=O)(=O)N2CCCC2)cn1
→ 2, 1
Cc1ccc(F)c(S(=O)(=O)NC(=O)C2(C)CCN2C(=O)c2ccccc2)c1 (stereo not drawn)
→ -3, -5
c1cc2n[nH]c(C3CCCCC3)c2c(-c2ccsc2)n1
→ 0, 0
CC(=O)c1c(C)nn(CC(=O)NCc2nc3c(C)cccc3[nH]2)c1C
→ 3, -6
CN1C(=O)CON=C1c1ccccc1
→ 5, 2
Cn1c2ccccc2c(=O)c2c(=O)n(CCc3ccccc3)c(-c3cccs3)nc21
→ 8, 6
O=S(=O)(Nc1ccc2c(c1)OC1(CCCC1)O2)c1ccc2c(c1)OCCCO2
→ 6, 11
CC(=O)C1=C(c2ccccc2)N(C(C)=O)n2cnnc2S1
→ 3, -1
CCN1CCc2nc(NC(=O)c3csc(-c4cnn(C)c4)n3)sc2C1
→ 6, 5
O=C(CCn1c(=O)oc2ccc(Cl)cc21)NCCCc1ccccc1
→ 7, 11
CCOC(=O)N1[C@@H](c2ccco2)[C@@H](CO)C[C@]12CCCCN(C)C2=O
→ 1, 5
Cc1cc(N2CCCN(Cc3ccc(C)o3)CC2)ccn1
→ 1, 0
N#Cc1ccsc1NC(=O)CN1CCC(Oc2ccccn2)CC1
→ 2, 2
Brc1ccc2nc(-c3ccccn3)c(Nc3ccc4c(c3)OCO4)n2c1
→ -2, -2
CN(Cc1cc(C(C)(C)C)n[nH]1)Cc1coc2ccccc2c1=O
→ 3, 12
Cc1cc(C)c2c(=O)[nH]n(C(=O)CCl)c2n1
→ 1, -1
O=C(CSc1ccc2ccccc2n1)Nc1ccc(F)c(Cl)c1
→ -1, 2
Fc1ccc(CC2CN(Cc3c[nH]c4ccccc34)CCO2)cc1 (stereo not drawn)
→ -1, -3
OCc1csc(COc2ccc(Cl)cc2CNCc2ccc3c(c2)OCO3)n1
→ 8, 4
S=C(NN=Cc1cccs1)NC1CCCCC1
→ 1, 0
Cc1cc(C)n2c(C#N)c(C#N)nc2n1
→ 2, 11
Cc1cc2c(C)c(C(=O)O)sc2s1
→ -3, -3
COc1ccc(CCN2C(=O)O[C@@H]3CN(S(=O)(=O)N4CCCC4)C[C@@H]32)cc1
→ 9&1, 8&0
CN(C)CCNC(=O)c1coc(CN(CCc2c[nH]c3ccccc23)Cc2ccc(Cl)cc2)n1
→ 22, 26
O=[N+]([O-])c1ccc(N2CCCCC2)cc1
→ -14, -21
Cc1onc(-c2ccccc2Cl)c1C(=O)Nc1cccc(C(=O)O)c1
→ -1, -8
CCOCC(=O)Nc1c(C)nc2scc(C)n2c1=O
→ 13, 3
CC1CCCN(c2nc(-c3cccc(Br)c3)nc3ccccc23)C1 (stereo not drawn)
→ -1, 5
Cc1ccc2c(c1)C(=O)N(C(C)C(=O)N(Cc1ccc(F)cc1)C1CC1)C2=O (stereo not drawn)
→ -4, -6
CN(CCNc1ccc2c(c1)C(=O)CCC2)c1ccccc1
→ 4, 1
CCn1c(C(C)NC)nc2ccccc2c1=O (stereo not drawn)
→ 1, 12

Of the compounds above, these contain a COOH group.
Under each structure – NPYLR7 agonist, NPYLR7 agonist max-min
O=C(O)CN1C(=O)/C(=C\c2ccc3c(c2)OCO3)SC1=S
→ 15, -5
Cc1cc2c(C)c(C(=O)O)sc2s1
→ -3, -3
Cc1onc(-c2ccccc2Cl)c1C(=O)Nc1cccc(C(=O)O)c1
→ -1, -8

Later entries:
Under each structure – NPYLR7 agonist, NPYLR7 agonist max-min
CCNC(=O)c1c(C(F)(F)F)nn(C2CCCN(C)C2)c1C (stereo not drawn)
→ 11, 0
Cc1ccc(S(=O)(=O)N2CCCC2)cc1C(=O)NC(CC(C)C)C(=O)O (stereo not drawn)
→ -5, -3
CCOc1ccc(-c2cc3c(=O)n(Cc4nc(-c5cc(OC)cc(OC)c5)no4)ccn3n2)cc1
→ -3, -7
NC(=O)C1CCN([C@H]2[C@@H]3OC[C@@H](O3)[C@@H](NCc3ccc4c(c3)OCO4)[C@@H]2O)CC1
→ -8, -15
O=[N+]([O-])c1cc(NS(=O)(=O)c2ccc(Br)cc2Cl)ccc1Cl
→ 1, 3
CC(CCc1ccccc1)NC(=O)c1cncn1-c1cccc(-c2ccc(Oc3ccccc3)cc2)c1 (stereo not drawn)
→ 2, 0
CCOc1ccccc1C(=O)Nc1cc(-c2ccc(C)cc2)nn1-c1ccccc1
→ 3, 0
COc1cccc(C(=O)Oc2ccc(-c3nc4ccc(Br)cn4c3NC3CCCCC3)cc2OC)c1
→ 4, 3
O=c1c2cc([N+](=O)[O-])ccc2nc2n1CCC2=Cc1ccc2c(c1)OCCO2
→ -8, -8
CCc1cc2c(cc3c(=O)n(CCCC(=O)O)ncn32)s1
→ 2, -2
O=C(Nc1ccccc1Oc1cccnc1)C1CCCN(Cc2ccc(Cl)s2)C1 (stereo not drawn)
→ -6, -8
CC1CCN(C(=O)CNc2ccc(C(F)(F)F)cc2)CC1
→ -2, -1
O=C(Cc1cccs1)N1CCN(S(=O)(=O)c2ccccc2)CC1
→ -5, -6
CCN(C(=O)c1ccc(NC(=O)CCC(=O)O)cc1)c1cccc2ccccc12
→ 8, 12
Fc1ccc(F)c(NC2=NCCCCC2)c1
→ 11, 1
CC(C1CC1)N(Cc1ccccc1)S(=O)(=O)c1ccccc1Cl (stereo not drawn)
→ 9, 6
Cc1ccc(C(=O)[C@@H]2C(C#N)(C#N)C23CCC2(CC3)OCCO2)cc1 (stereo partly drawn)
→ 1, 5
COc1ccc(C(=O)CN(C(=O)N2CCN(C)CC2)S(=O)(=O)c2ccc(C)cc2)cc1
→ 7, 6
COc1cccc(-c2cccc3c2NC(=O)C3(C)Cc2cccc(C(N)=O)c2)c1 (stereo not drawn)
→ 4, 3
Cc1cc(C(C)(C)C)ccc1OCC(=O)N=Nc1c(O)n(C)c2ccc([N+](=O)[O-])cc12
→ -4, -8
O=c1c2cc3c(cc2nc2sc(Nc4ccc(F)c(Cl)c4)nn12)OCO3
→ 0, -2
CNC(=O)CN1C(=O)CN(C(=O)c2cccc(C#N)c2)CCC(OC)c2ccccc21 (stereo not drawn)
→ 7, 9
O=S(=O)(Nc1cccnc1)c1cccc2cccnc12
→ -1, -1
O=C(Nn1cnc2c(cnn2-c2ccccc2)c1=O)c1cc(Cl)ccc1[N+](=O)[O-]
→ 0, -3
CCN(CC)S(=O)(=O)c1ccc(S(=O)(=O)Nc2ccc(S(C)(=O)=O)cc2)cc1
→ -1, -1
COc1ccccc1-c1cc(C(=O)N(CCN(C)C)Cc2ccccc2)n2nc(-c3ccccc3)cc2n1
→ 14, 10
CCCCc1ccc(NC(=O)CSc2nc3nc(C)cc(C)n3n2)cc1
→ -4, -9
FC(F)(F)c1cccc(-c2cc3cnc(Nc4ccc5c(c4)OCCO5)cc3[nH]2)c1
→ -5, -6
Cc1nn(CC(=O)OCc2cc(-c3ccco3)on2)c(C)c1[N+](=O)[O-]
→ 7, 2
Cc1c(C(=O)NCc2cccs2)sc(=O)n1Cc1ccccc1F
→ 2, 0
Cc1cnc(Nc2ccc(N3CCN(C)CC3)cc2)nc1Nc1cccc(S(=O)(=O)NC(C)(C)C)c1
→ -1, -8
COC(=O)[C@@H]1C[C@H](NC(=O)c2nc3c(s2)CCCC3)CN1C
→ -3, -2
COc1ccc(C2C(C(=O)OCCc3ccccc3)=C(C)NC3=C2C(=O)CCC3)c(OC)c1 (stereo not drawn)
→ -1, -8
CCC(C)N(Cc1cccc(OS(=O)(=O)c2ccc(F)cc2)c1)C(=O)c1ccc(Br)cc1 (stereo not drawn)
→ -2, 9
Cc1ccc2c(c1)C1(SC(C)(C)CN1C(=O)C1CC1)C(=O)N2Cc1ccc(F)cc1 (stereo not drawn)
→ -3, 0
Cc1ccc(-c2csc3nc(CN(Cc4ccco4)CC(O)Cc4ccccc4)[nH]c(=O)c23)cc1C (stereo not drawn)
→ -7, -3
NS(=O)(=O)c1cnc(NCc2ccc(Cl)s2)s1
→ 6, 5
Cc1ccc(S(=O)(=O)N2CCOC23CCN(C(=O)c2c(F)cccc2F)CC3)cc1
→ 7, 0
C[C@H](C(=O)N[C@H](C)c1ccccc1)N1Cc2ccc(N3CCOCC3)nc2C1=O
→ 1, 1
O=C(NCC1(Cn2ccnc2)CC1)C1CCOC1 (stereo not drawn)
→ -18, -14
COc1ccc(CNC(=O)C(C)n2cnc3ccc(Cl)cc3c2=O)cc1 (stereo not drawn)
→ 2, -2
O=[N+]([O-])c1cccc(NP2(=O)C=C(c3ccccc3)OC(c3ccccc3)=C2)c1
→ 2, 16
COCC(=O)Nc1nnc(SCC(=O)c2ccc(OCc3ccccc3)cc2)s1
→ 18, 12
O=C(NCc1c(F)cccc1Cl)c1ccc(-c2ccc3c(c2)OCO3)s1
→ 33, 31
CC(=O)Oc1ccccc1Cn1cc(C(=O)NCc2ccc3c(c2)OCO3)sc1=O
→ 8, 2
C=CCN(CC=C)c1cc(Oc2cccc(F)c2)ncn1
→ -2, 3
Cc1ccc(S(=O)(=O)N2CCN(c3ccc(-n4cccn4)nn3)CC2)cc1C
→ -5, -10
CCc1ccccc1NC(=O)N(Cc1ccc(OS(=O)(=O)c2cccc(C(F)(F)F)c2)cc1)Cc1ccco1
→ 11, 25
Nc1ncc(C(=O)Nc2cnc3n2CCCC3)c(-c2ccccc2)n1
→ 10, 9
COc1ccc2[nH]c3c(c2c1)CCN(C(=O)C=C(C)C)C3c1ccc(OCc2ccccc2)cc1 (stereo not drawn)
→ 5, -6
C=CCNCC(=O)N(Cc1ccc2c(c1)OCO2)Cc1cccs1
→ 13, 11
CC(C)(C)c1ccc(OC(=O)c2cnsn2)cc1
→ 4, 3
COCCN(Cc1ccc(OC)cc1)c1c(C)nc2ccc(C(=O)NCC3CCCCC3)cn12
→ -10, -14
Cc1oc(NC(=O)COC(=O)c2ccc(C)n2C)c(C#N)c1C
→ 1, 10
CCOc1ccc(-n2c(CNC(=O)COc3ccccc3)nnc2SCC(=O)Nc2nccs2)cc1
→ 10, 9
N#Cc1c(-c2ccccc2)c2c(N)[nH]nc2[nH]c1=O
→ 0, 2
COc1ccc(C2(C(=O)NCc3nnc4n3CCC4)CCCC2)cc1
→ -1, -4
Cc1noc(C)c1S(=O)(=O)N1CCCC1c1nc2ccccc2s1 (stereo not drawn)
→ -1, 6
Clc1ccc(-c2nnc(CSc3nnc(-c4ccc5c(c4)OCO5)o3)o2)cc1
→ 0, 25
COc1ccc2nnc(-c3ccc(Br)cc3)n2n1
→ 5, 3

(list continues)
Under each structure – NPYLR7 agonist, NPYLR7 agonist max-min
O=C(Cn1nc(-c2ccco2)c2sc(N3CCOCC3)nc2c1=O)NCc1ccc(F)cc1
→ -3, -9
Cc1sc(C(=O)O)cc1S(=O)(=O)Nc1cc(F)cc(N2CCCC2)c1
→ 7, 6
COc1ccc(CN(C)c2cncc(Cl)n2)c(OC)c1
→ -5, -7
Cc1nc(-c2ccc(-n3ccnc3-c3cc(CC(C)C)[nH]n3)cc2)n[nH]1
→ 6, 4
CC(C)C(C#N)NC(=O)CC(C)C(C)(C)C (stereo not drawn)
→ 4, 3
COc1cc(C2c3cccn3CCCN2Cc2ccc([N+](=O)[O-])cc2)cc(OC)c1OC (stereo not drawn)
→ 29, 28
CCN(CC)S(=O)(=O)c1cc(C(=O)Nc2ccc(F)cc2)ccc1C
→ -6, -10
CCCCc1noc(CS(=O)(=O)CC(=O)NC2CCCCC2C)n1 (stereo not drawn)
→ 3, 1
O=C(CC12CC3CC(CC(C3)C1)C2)N1CCN2CCCC2C1 (stereo not drawn)
→ 5, 3
O=C(Nc1cccc(C(F)(F)F)c1)c1cnn2c(-c3ccccc3)cc(-c3ccccc3)nc12
→ -11, -16
C=CCn1c(C2CC(=O)N(CC3CC3)C2)nc2ccccc21 (stereo not drawn)
→ 6, 2
CCCCOc1ccc(C(=O)Nc2ccc(C3SCC(=O)N3c3ccccc3OCC)cc2)cc1 (stereo not drawn)
→ 7, 31

An excerpt of these results, as comma-separated lines.
SMILES,NPYLR7 agonist,NPYLR7 agonist max-min
COc1cc(C2c3cccn3CCCN2Cc2ccc([N+](=O)[O-])cc2)cc(OC)c1OC (stereo not drawn),29,28
CCN(CC)S(=O)(=O)c1cc(C(=O)Nc2ccc(F)cc2)ccc1C,-6,-10
CCCCc1noc(CS(=O)(=O)CC(=O)NC2CCCCC2C)n1 (stereo not drawn),3,1
O=C(CC12CC3CC(CC(C3)C1)C2)N1CCN2CCCC2C1 (stereo not drawn),5,3
